# From PubChem BioAssay
# KCNQ2 pot: potentiators of rat KCNQ2 potassium channel; Potassium voltage-gated channel subfamily KQT member 2 (Rattus norvegicus), O88943; CHO-K1 KCNQ2, FluxOR thallium flux fluorescence; stronger effect = higher value; B-score at 10 µM; actives 0.54% (n = 310,000);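 active means fluorescence ratio B-score at least 3 SD of library B-scores, with initial fluorescence B-score within 3 SD, cut at about 5.3 in these data; same plate scores as AID 2156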;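 further: B-score of peak minus minimum over baseline fluorescence ratio after K+ and Tl+ stimulus; positive B-score means potentiation of KCNQ2 with more thallium influx and brighter signal; only the inactives scoring about 0 or higher are listed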
# Target sequence (O88943 whole entry, looked up): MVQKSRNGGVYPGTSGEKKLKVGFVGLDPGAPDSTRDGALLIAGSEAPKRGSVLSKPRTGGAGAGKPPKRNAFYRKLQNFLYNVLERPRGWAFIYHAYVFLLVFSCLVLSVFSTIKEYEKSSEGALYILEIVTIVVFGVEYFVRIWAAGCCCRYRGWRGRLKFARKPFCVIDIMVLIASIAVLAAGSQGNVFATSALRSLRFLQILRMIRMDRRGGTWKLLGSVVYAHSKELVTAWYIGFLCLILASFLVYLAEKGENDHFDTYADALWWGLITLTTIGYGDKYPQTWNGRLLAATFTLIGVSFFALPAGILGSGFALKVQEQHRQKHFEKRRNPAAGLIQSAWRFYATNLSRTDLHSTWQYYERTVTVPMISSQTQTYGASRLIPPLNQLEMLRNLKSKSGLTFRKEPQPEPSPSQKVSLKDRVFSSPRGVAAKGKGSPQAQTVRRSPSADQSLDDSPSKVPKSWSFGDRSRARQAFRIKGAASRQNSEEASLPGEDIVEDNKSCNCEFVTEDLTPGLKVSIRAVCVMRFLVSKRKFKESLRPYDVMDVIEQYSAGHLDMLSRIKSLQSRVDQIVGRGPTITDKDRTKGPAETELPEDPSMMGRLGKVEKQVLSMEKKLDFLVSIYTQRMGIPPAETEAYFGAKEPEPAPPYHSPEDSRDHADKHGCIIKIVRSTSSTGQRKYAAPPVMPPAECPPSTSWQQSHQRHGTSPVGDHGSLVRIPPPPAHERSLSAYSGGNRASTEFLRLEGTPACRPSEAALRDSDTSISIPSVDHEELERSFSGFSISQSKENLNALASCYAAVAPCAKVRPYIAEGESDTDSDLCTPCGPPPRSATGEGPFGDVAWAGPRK
# KCNQ2 pot baseline: recorded beside KCNQ2 pot, whose call it bears; B-score; compound at 10 µM; measured here: initial fluorescence intensity artifact check;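 brightness before thallium and not channel activity; 0 = typical well and far values either way flag optical interference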
# Active calls of the source: *. An excerpt; rates above refer to the full screens.
KCNQ2 pot,KCNQ2 pot baseline,Molecule
0.3,2,O=C(COC(=O)CNC(=O)c1sc2ccccc2c1Cl)Nc1c(Cl)cc(Cl)cc1Cl
1,1.4,COc1ccc(CNC(=O)CSc2nc(C)cs2)cc1
1.9,-0.61,CCN(CC)Cc1cc(CC(C(N)=O)C(N)=O)ccc1OC
0.39,-1.6,Cc1nc2ccccc2cc1C(=O)NCc1ccco1
1.1,-0.4,CS(=O)(=O)N1CCN(Cc2cc(=O)n3ccsc3n2)CC1
0.06,1.9,Cc1nc2cc(NC(=O)c3ccc(Br)s3)ccc2s1
0.51,-1.5,CCCN(Cc1cc(=O)[nH]c2ccccc12)C(=O)CC
1.9,-4,Cc1cc(OCc2nn[nH]n2)c2c(C)c(Cc3ccccc3)c(=O)oc2c1
2.3,-0.49,O=c1[nH]nc(SCc2ccccc2)n1C1CC2C=CC1C2 (stereo not given)
0.53,1,CCOC(=O)c1ccc(NC(=O)CCS(=O)(=O)Cc2ccccc2)cc1
0.13,1.1,O=C(NCCNC(=O)c1ccc(Cl)cc1Cl)c1ccccn1
0.32,-0.2,CSc1nsc(/C=C/Nc2ccc(F)cc2)c1C#N
0.58,-0.03,CC(=O)NS(=O)(=O)c1ccc(NC(=O)c2ccc(Cl)cc2[N+](=O)[O-])cc1
1.8,1.8,CCOC(=O)c1c(NC(=O)Cc2ccccc2)sc2c1CCN(C)C2
0.96,0.5,Cc1nn2c(N)c(C#N)cnc2c1-c1ccccc1
0.04,0.09,O=[N+]([O-])c1ccc(N2CCN(S(=O)(=O)Cc3ccccc3)CC2)cc1N1CCOCC1
0.25,-1.4,COc1ccc(-n2nnnc2SCC(=O)NCCc2ccc(OC)c(OC)c2)cc1
0.77,0.65,CCN(CC)CCN(Cc1cc2cc3c(cc2[nH]c1=O)OCCO3)C(=S)NCC(C)C
0.02,-0.14,CCOC(=O)C1CCCN(CC(=O)Nc2c(F)c(F)c(F)c(F)c2F)C1 (stereo not given)
0.31,1.2,Cn1c(=O)c2c(nc(NCc3ccc4c(c3)OCO4)n2Cc2ccccc2)n(C)c1=O
0.06,-0.05,Cc1nn(Cc2ccccc2)c(C)c1/C=N/NC(=O)c1ccccc1O
0.27,-0.27,COc1ccc(C2CC(C(F)(F)F)n3ncc(C(=O)NCC4CCCO4)c3N2)cc1OC (stereo not given)
0.35,0.02,Cc1onc(-c2ccccc2)c1C(=O)c1c[nH]c(C(=O)NCCCN2CCOCC2)c1
0.98,0.19,Cc1cc(C)c(NC(=S)NC(=O)c2c(Cl)c(C)nn2C)c([N+](=O)[O-])c1
2.2,-1.2,CCCCn1c(CCCNC(=O)CC)nc2ccccc21
2.9,0.25,COc1cccc(C(=O)Nc2sc(C(C)C)cc2C(N)=O)c1OC
0.14,0.11,CC(C)Cn1c(N)c(C(=O)CSc2ncccn2)c(=O)n(C)c1=O
0.01,-0.68,C/C(=N/O)c1ccc(Oc2cnccn2)cc1
0.7,0.69,N=C1C(c2ccccc2)=C(O)CN1c1cccc2ccccc12
0.23,0.35,CCSc1nnc(-c2ccncc2)n1Cc1ccccc1

# Further entries follow.
KCNQ2 pot,KCNQ2 pot baseline,Molecule
1.6,-0.13,COc1ccc(Cn2c(=O)c3c(nc(NCCO)n3C)n(C)c2=O)cc1
0.28,-0.62,S=c1[nH]nc(COc2ccc3ccccc3c2)o1
0.05,1.2,O=C1CN(c2nc3nonc3nc2N2CCCCC2)CCN1
0.55,0.62,CCOC(=O)CNC(=O)c1sc(NC(=O)c2cccc(F)c2)nc1C
1.2,3,O=C1OC(Nc2ccc(Br)cc2F)c2ccccc21 (stereo not given)
0.56,-0.01,CCCn1c(/N=C/c2ccc3c(c2)OCO3)nc2ccccc21
0.36,1,N#C/C(=C\c1ccc(Oc2ccc(C(F)(F)F)cc2[N+](=O)[O-])cc1)c1nc2ccccc2[nH]1
2,-1.1,CC(=O)Nc1ccc(S(=O)(=O)N2CCCC2C(=O)Nc2ccc3c(c2)OCCO3)cc1 (stereo not given)
1.1,-0.9,C/C=C(\C)CN1CCN(c2cc(C)ccc2C)CC1
0.01,-0.56,COc1ccccc1N1CCN(C(=O)C(F)F)CC1
0.04,-0.58,COc1ccc(C)cc1NC(=O)C1CCCN(S(=O)(=O)c2cccc3cccnc23)C1 (stereo not given)
0.05,-0.03,CCCC(=O)NC(=S)Nc1ccc(S(=O)(=O)Nc2ccc(OCC)cc2)cc1
0.02,1.9,O=c1cc(O)c2sc(Nc3ccc(Cl)c(F)c3)nc2[nH]1
0.26,-0.18,COc1ccccc1CCNC(=O)Cc1cccs1
1.1,-0.02,O=C(NCc1cccs1)C1CCN(S(=O)(=O)c2cccs2)CC1
0.58,-0.18,CCn1cc(CN2CCCC(CNC(=O)COc3ccccc3OC)C2)c(C)n1 (stereo not given)
1.9,-0.35,COCCNC(=S)N1CCN(c2cccc(C(F)(F)F)c2)CC1
0.67,-0.13,N#Cc1ccsc1NC(=O)CSc1ncn[nH]1
0.58,0.01,CCOc1ccc(NC2OCC(O)C(O)C2O)c([N+](=O)[O-])c1 (stereo not given)
1.8,0.87,CCCCNc1nc(Nc2ccc(C)c(Cl)c2)c2cnn(C)c2n1
0.04,-1.4,C#CC(C)(CC)NC(=O)Cn1nnc(-c2ccc(S(C)(=O)=O)cc2)n1 (stereo not given)
0.76,-1.1,CCOc1cc(N2CCOCC2)c(OCC)cc1NC(=O)COC(=O)[C@@H]1CCCN1S(=O)(=O)c1ccccc1F
0.82,1.3,O=C(O)c1ccc(N2CCc3ccccc32)c([N+](=O)[O-])c1
0.6,0.42,CCN1C(=O)/C(=C2\C=Cc3ccccc3N2CC)SC1=S
0.01,-0.25,Cc1nn(C)c(C(=O)Nc2ccn(Cc3ccccc3F)n2)c1[N+](=O)[O-]
5.7*,-0.03*,Cc1cccc(C)c1OCC(O)CN1CCC(CN2C(=O)c3cccc4cccc(c34)C2=O)CC1 (stereo not given)
1.1,0.16,CCOc1ccc(-n2c(SCC(=O)Nc3ccc(OC)cc3)nc3sc4c(c3c2=O)CCN(C)C4)cc1
0.32,-0.45,O=S(=O)(NCC(c1ccco1)N1CCOCC1)c1ccc(Cl)cc1 (stereo not given)
0.46,-1.4,Cc1ccc(-c2ccc(CO)o2)cc1N
1.7,0.06,O=C(C1CC1)N1CCN(Cc2ccccc2)CC1

# An excerpt of these results, bar-delimited:
molecule | KCNQ2 pot | KCNQ2 pot baseline
COc1ccccc1N1CCN(C(=O)C(F)F)CC1 | 0.01 | -0.56
COc1ccc(C)cc1NC(=O)C1CCCN(S(=O)(=O)c2cccc3cccnc23)C1 (stereo not given) | 0.04 | -0.58
CCCC(=O)NC(=S)Nc1ccc(S(=O)(=O)Nc2ccc(OCC)cc2)cc1 | 0.05 | -0.03
O=c1cc(O)c2sc(Nc3ccc(Cl)c(F)c3)nc2[nH]1 | 0.02 | 1.9
COc1ccccc1CCNC(=O)Cc1cccs1 | 0.26 | -0.18

# Next section.
KCNQ2 pot,KCNQ2 pot baseline,Molecule
1.2,0.83,CSc1ccc(/C=C/C(=O)Nc2ccccc2)cc1
1.4,0.17,COc1cc(NC(=O)CCc2c(C)[nH]c(=O)c(C#N)c2C)cc(OC)c1
1.9,-2.4,CC(C)(C)c1ccccc1NC(=O)c1cccnc1
2.2,-1.8,C=CCn1c(SC(C)C(N)=O)nc2sc(CC)cc2c1=O (stereo not given)
0.79,-1,Oc1cccc(/C=N/Nc2ccc(Cl)nn2)c1O
1.6,1.1,Cc1cc(S(=O)(=O)N2CCN=C2c2ccccc2)c(Cl)cc1Cl
0.95,0.06,Cc1ccccc1OCCSc1nnc(-c2ccncc2)n1C
0.83,-2.5,Cc1cc(NC(=O)Nc2cc(C)nn2-c2ccccc2)n(-c2ccccc2)n1
0.02,-1.4,S=C(NCCN1CCOCC1)N/N=C/c1ccccc1
1,-1.6,O=C(COc1ncnc2ccccc12)Nc1ccc(Cl)c([N+](=O)[O-])c1
0.03,-0.15,Cc1cccc(OCc2nnc(SCC(=O)Nc3cccc(C(=O)N4CCOCC4)c3)n2C)c1C
0.18,1,C=C(C)c1cccc(C(C)(C)NC(=O)N2CCCC(C)C2)c1 (stereo not given)
1.6,-0.49,O=C(NNC(=S)Nc1ccc(F)cc1)C1[C@H]2CCCC[C@@H]12 (stereo not given in full)
1.1,0.09,O=C(N/N=C/c1ccncc1)c1ccccc1[N+](=O)[O-]
1.1,0.13,CCN(Cc1ccccc1)C(=O)COc1ccccc1
0.04,1.5,Cc1ccc(S(=O)(=O)N2CCOCC2)cc1C(=O)OCc1nnc(-c2ccccc2)o1
2.5,-0.16,O=C(CSc1ccc2nnc(-c3ccccn3)n2n1)NCc1ccco1
0.07,0.79,CCOC(=O)CN1C(=O)N[C@H](c2ccc(Br)cc2)C(C(C)=O)=C1C
0.43,1.6,COc1ccc(C(=O)NCc2nnc(SCC(=O)c3ccccc3)n2C)cc1OC
0.01,2,CC(C)c1ccc(C(CC(=O)O)NC(=O)c2cccs2)cc1 (stereo not given)
0.23,-0.17,CCc1ccccc1NC(=O)COc1ccc2oc(-c3ccc(OC)cc3)cc(=O)c2c1
0.16,-0.36,O=C(Nc1cccc(C2OCCCO2)c1)c1cccs1
0.63,0.04,CN1c2ccsc2/C(=N/Nc2ccccc2)CS1(=O)=O
0.6,-0.62,CC(=O)Oc1ccc(N2C(=O)c3cccc4c([N+](=O)[O-])ccc(c34)C2=O)cc1
1.2,2.6,COc1ccc(S(=O)(=O)N2CCCOC2CNC(=O)C(=O)NCCCn2ccnc2)cc1OC (stereo not given)
0.72,-1.7,COc1c(C(C)C)oc2cc3oc(=O)ccc3cc12
0.53,0,CCOc1cc(-c2cc(N)n[nH]2)cc(OCC)c1OCC
1.4,0.74,O=C(Nc1ccc(Br)cc1)c1cccn1-c1ncc(C(F)(F)F)cc1Cl
0.48,0.86,CC/C(=N\NC(=O)Nc1nonc1N)c1ccc(OC)c(OC)c1
2.9,0,O=S(=O)(Cc1cc(Sc2ccccc2)nc(-c2ccccc2)n1)c1ccccc1

# Rewritten with each value named: entries from further up.
COc1ccc(C(=O)NCc2nnc(SCC(=O)c3ccccc3)n2C)cc1OC
  KCNQ2 pot: 0.43; KCNQ2 pot baseline: 1.6
CC(C)c1ccc(C(CC(=O)O)NC(=O)c2cccs2)cc1 (stereo not given)
  KCNQ2 pot: 0.01; KCNQ2 pot baseline: 2
CCc1ccccc1NC(=O)COc1ccc2oc(-c3ccc(OC)cc3)cc(=O)c2c1
  KCNQ2 pot: 0.23; KCNQ2 pot baseline: -0.17
O=C(Nc1cccc(C2OCCCO2)c1)c1cccs1
  KCNQ2 pot: 0.16; KCNQ2 pot baseline: -0.36

# (list continues)
KCNQ2 pot,KCNQ2 pot baseline,Molecule
1.5,0.54,C=CCOc1ccc(/C(O)=C2/C(=O)C(=O)N(CCCn3ccnc3)C2c2ccco2)cc1 (stereo not given)
1,-0.39,COc1cccc(N2CC(NC(=O)c3cccc4ccccc34)CC2=O)c1 (stereo not given)
1.9,-2.3,CCC1(C)N(O)C(C)(C)C(c2ccc(F)cc2)=[N+]1[O-] (stereo not given)
0.37,-0.62,Cc1nn(C)cc1S(=O)(=O)N1CCN(Cc2ccccc2Cl)CC1
0.37,-0.61,CCN1CCN(CC(=O)c2c[nH]c3ccccc23)CC1
3,-0.7,O=c1[nH]c(C(F)(F)F)nc2c1nnn2Cc1ccccc1F
0.74,-0.05,COC(=O)c1sc(NC(=O)c2c(C)noc2C)nc1C
0.76,0.6,O=[N+]([O-])c1ccc(CN2CCSCC2)cc1
0.06,1.2,CCN(CC)C(=O)CSc1ncnc2sc(C)c(C)c12
2.5,-1.6,CN(CC(=O)Nc1ccc(F)c(F)c1F)C(=O)c1ccc2c(c1)S(=O)(=O)N=C1CCCCCN12
1.9,-0.26,Cc1nnsc1NC(=O)OCC(C)(C)C
0.09,-2.1,CCC(=O)NCCc1nc2cc(NC(=O)c3ccco3)ccc2n1C
2.6,-1.4,COCCNC(=O)C(C)N(c1ccc(OC)cc1)S(C)(=O)=O (stereo not given)
1,-0.1,CC(C)C(=O)NNc1nc2ccccc2s1
0.06,0.53,Cc1ccccc1C(=O)N1CCC(C(=O)N(CC(C)C)c2c(N)n(Cc3ccccc3)c(=O)[nH]c2=O)CC1
0.55,-0.12,CCN(CC)S(=O)(=O)c1cccc(C(=O)NC(Cc2c[nH]c3ccccc23)c2nnc3n2CCC3)c1 (stereo not given)
0.07,1.1,O=C(C1CCN(S(=O)(=O)N2CCOCC2)CC1)N1CCN(c2ccc(F)cc2)CC1
0.01,0.85,COC(=O)CC1C(=O)NCCN1C(=O)CSc1nnc(Nc2ccc(C)cc2)s1 (stereo not given)
0.46,-1.8,COc1ccc(-n2c(Cc3cccn3C)nnc2SCC(=O)NC2CCCCC2)cc1
0.23,-1.8,COc1ccc(-c2ccc3oc(-c4ccc(OC)cc4)c(C#CCCO)c3c2)cc1
0.42,1.7,COc1cc(CN2CCC(N3CCC(C(=O)N4CCCC4)CC3)CC2)cc2c1OCO2
1.8,0.1,COc1ccc2cc(C(=O)N/N=C/c3cc(OC)c(OC)c(OC)c3)[nH]c2c1
0.37,0.45,O=Cc1cn(CC(=O)N2CCCc3ccccc32)c2ccccc12
0.27,1.9,CCOc1ccc(CC(=O)Nc2sc(Cc3ccccc3)cc2C(N)=O)cc1OCC
0.09,0.43,CCOC(=O)C1Sc2ccccc2NC1=O (stereo not given)
0.51,-0.01,Nc1cc(Br)c(N)c(Br)c1
0.7,-1.3,O=C1OCCC1Sc1nc2ccccc2s1 (stereo not given)
1.7,-0.03,CCC(=O)NC(Nc1c(C)n(C)n(-c2ccccc2)c1=O)C(Cl)(Cl)Cl (stereo not given)
0.51,0.32,COc1ccc(CCNC(=O)C(=O)NCCOc2ccccc2Cl)cc1OC
